Vaccinia Venus = vaccinia inhibition (Venus reporter); actives 0.46% (n = 330,000); Vaccinia virus Venus reporter expression, fluorescence; Potency, µM (highest dose often 36.5 µM), for inactives: at the top dose activity change, negative = inhibition, hits mostly inhibitors; active means well fitted inhibition curve with a large enough effect; inconclusive means small, poorly fitted or top-dose-only effect; inactive means no such curve, though single readings can be large or run the other way; tested in A549 cells; further: nearly all actives have a fitted effect of over 30% in size; inactives centre near -10
VACV mCherry inh = inhibitors of vaccinia virus infection (mCherry reporter signal) | Vaccinia virus mCherry reporter infection, fluorescence; about a quarter of the inactives have no number | Potency, µM (highest dose often 36.5 µM), for inactives: top-dose activity change, negative = inhibition, most hits filed as inhibitors | AID 720579 | actives 0.63% (n = 310,000); active = well fitted inhibition curve with a large enough effect; inconclusive = small, poorly fitted or top-dose-only effect; inactive = no such curve, though single readings can be large or run the other way; tested in A549 cells; further: nearly all actives have a fitted effect of over 35% in size; inactives centre near -10
The depositor's hits bear a star; i = inactive; ? = inconclusive; · = not tested or not shown; & = joins results of further samples; [ ] = another dose, or the depositor's remark. On the % scale 0 is the no-effect control and ±100 the full control effect; potency means the concentration at half of the fitted maximal effect. An unsorted share of the library; about 0.82% have a hit in one of these screens.

SMILES	Vaccinia Venus	VACV mCherry inh
COc1ccc(N2CCN(C(=O)CN3C(=O)C4CC=CCC4C3=O)CC2)cc1 (stereo not given)	-14%	-20%
Cc1cc2c(cc1C)NC1(C(=O)Nc3ccccc31)C1=C(CC(C)(C)CC1=O)N2 (stereo not given)	?	·
CCOc1ccc(CCN2C(=S)N([C@@H](CC(C)C)CN3CCCC3CN3C(=S)NC[C@@H]3Cc3ccc(O)cc3)C[C@@H]2Cc2ccccc2)cc1 (stereo not given in full)	?	-30%
Cc1nn(-c2ccc(F)cc2)c(C)c1/C=C/C(=O)N1CCNC(=O)C1	3%	-8%
CCCN1CN=C(NS(=O)(=O)c2ccc(C)cc2)NC1	-10%	-10%
O=C(COC(=O)C1=COCCO1)Nc1cc(Cl)c(Cl)cc1Cl	-21%	i
CCOc1ccccc1CNC(=O)C1CCN(c2nnc(-n3c(C)ccc3C)s2)CC1	-18%	-23%
CC(C)Cc1nnc(NC(=O)CSc2nc(O)c(Cc3ccccc3)c(=O)[nH]2)s1	-7%	-11%
COc1ccc(C(=O)NCc2ccc3c(c2)CCN3C(=O)c2ccccc2)cc1	-15%	i
CC(C)(C)NC(=O)c1cccc(NC(=O)c2ccc(NC(=O)c3ccco3)cc2)c1	-9%	-4%
COc1ccc(C(=O)/C=C2/C(=O)Nc3ccccc32)c(OC)c1	?	?
Fc1ccccc1Cc1noc(CN2CCC(OCc3cccnc3)CC2)n1	-8%	-23%
O=C(NCc1cccnc1)c1cc([N+](=O)[O-])ccc1N1CCOCC1	2%	i
CCn1ccnc1C(O)c1cccc(OC)c1 (stereo not given)	-6%	2%
COc1ccc(-c2ccc(C#N)c(SCC(=O)NCCc3ccccc3)n2)cc1OC	-6%	-21%
COc1cccc(N2CCN(C(=O)c3nc4nc(C)cc(C)n4n3)CC2)c1	-6%	i
C[C@@H]1CN([C@H](C)CO)C(=O)CCCn2cc(nn2)CO[C@H]1CN(C)C(=O)Nc1ccccc1F	-7%	-5%
COc1ccc(-c2noc(N3CCCC(C(=O)Nc4ccc(F)cc4F)C3)n2)cc1 (stereo not given)	-23%	-8%
COc1ccc(C(=O)N2C(=S)NC(=O)/C2=C\c2ccc(C)cc2)cc1	-9%	-19%
COc1cc(OC)cc(C(=O)Nn2cc(C(=O)Nc3c(F)cccc3F)c3ccccc3c2=O)c1	2%	i
CCOC(=O)c1ccc(NC(=O)COc2cccc3c(=O)n(C)ccc23)cc1	-20%	?
COc1ccc(C)c2sc(N(Cc3cccnc3)C(=O)CCc3ccccc3)nc12	-5%	-16%
CCOC(=O)C1=CCN(S(=O)(=O)c2ccc(F)cc2)C1c1cccc(F)c1 (stereo not given)	-4%	11%
CC(=O)Nc1cccc(C(=O)N/N=C/c2cccc(C)n2)c1	-16%	-3%
CCC(OC(=O)c1ccco1)C(=O)NCc1ccc2c(c1)OCO2 (stereo not given)	-9%	-23%
CCC(C)Nc1nc(Cl)nc(N(C#N)CN2C(=O)c3ccccc3S2(=O)=O)n1 (stereo not given)	-28%	-27%
CC(=O)N1CCc2cc(Br)cc(S(=O)(=O)CCC(=O)Nc3c(C)n(C)n(-c4ccccc4)c3=O)c21	2%	-1%
O=C(Nc1ccc2nc(-c3ccc(Br)o3)[nH]c2c1)c1ccco1	-39%	·
COc1cc(C(=O)NCc2ccc(-c3nc4ccccc4s3)cc2)cc(OC)c1OC	-20%	-3%
Clc1ccc(OCCn2cnc3ccccc32)c(Cl)c1	-15%	-24%
COc1ccccc1CC(=O)N1CCN(S(=O)(=O)c2cccs2)CC1	-2%	-25%
CCOc1ccc(N2CC(C(=O)NCc3nnnn3-c3ccc(C)c(C)c3)CC2=O)cc1 (stereo not given)	-13%	-13%
CCOC(=O)c1ccc(NC(=O)CC2C(=O)N(c3ccc(F)cc3)C(=O)N2Cc2ccc3c(c2)OCO3)cc1 (stereo not given)	-8%	-8%
C[C@H](CO)N1C[C@H](C)[C@@H](CN(C)C(=O)NC2CCCCC2)Oc2c(NC(=O)c3ccncc3)cccc2C1=O	-12%	i
CCCCOc1cccc(C(=O)Nc2ccc(S(=O)(=O)Nc3cc(C)on3)cc2)c1	0%	i
CC1CN(S(=O)(=O)c2ccc(CN3C(=O)c4cccnc4C3=O)cc2)c2ccccc2O1 (stereo not given)	-6%	-10%
COC(=O)c1ccccc1N1C(=O)C2C(C1=O)[C@H]1C=C[C@@H]2C1 (stereo not given in full)	-2%	-7%
CCc1ccc(C(=O)C(C)OC(=O)c2cccc(S(=O)(=O)N3CCOCC3)c2)cc1 (stereo not given)	-2%	-4%
CCc1n[nH]c(=S)n1/N=C/c1ccc(N(CC)CC)cc1	-9%	-18%
CCN(C(=O)CSc1cc(C)c2cccc(C)c2n1)C1CCS(=O)(=O)C1 (stereo not given)	-1%	3%
COc1ccc(CN2CCN(S(=O)(=O)c3ccccc3)CC2)c(OC)c1OC	-2%	-12%
COCCn1c(=O)[nH]c2cc(C(=O)N3CCN(c4cc(C)ccc4C)CC3)ccc2c1=O	-21%	-28%
O=C(Nc1cccc2ccccc12)NC1CCCc2ccccc21 (stereo not given)	-18%	i
O=C(Nc1ccc(N2CCN(C(=O)c3ccccc3)CC2)cc1)c1ccc2c(c1)OCCO2	-11%	-4%
CCOC(=O)C1(C)CCCN(C(=O)c2cc(C)on2)C1 (stereo not given)	-3%	4%
FC(F)(F)c1cc(CCN2CCNC[C@H]2Cc2cccc3ccccc23)cc(C(F)(F)F)c1	-28%	?
Cc1nn(CCCC(=O)Nc2cc(Oc3ccccc3)cc([N+](=O)[O-])c2)c(C)c1[N+](=O)[O-]	?	?
CC(NC(=O)CSc1nnc(-c2cccnc2)n1N)c1ccccc1 (stereo not given)	-3%	4%
CC1=CC(=Nc2c(C)n(C)n(-c3ccccc3)c2=O)C=C(C)C1=O	-8%	-27%
COc1ccc(S(=O)(=O)N(CC(=O)NN=C2CCN(C)CC2)c2ccc(C)cc2)cc1OC	-21%	-20%
Cc1c(C(=O)NCc2cccc(C(F)(F)F)c2)sc(=O)n1Cc1ccc(F)cc1	11%	15%
Nc1ccc2nc(-c3ccc(N)c(Cl)c3)[nH]c2c1	-20%	-19%[1.46 µM]
Cc1cccc(NC(=O)c2ccc(NCC3CCCO3)c([N+](=O)[O-])c2)n1 (stereo not given)	15%	i
Cc1[nH]c2ccccc2c1C1(O)C(=O)Nc2ccc(Cl)cc21 (stereo not given)	15%	13%
Cc1ccc(NC(=O)N(C)c2ccccc2)cc1	-15%	i
COc1cccc(CC(=O)OCC(=O)NC(=O)c2ccc(OC(F)F)cc2)c1	-12%	-1%
Cc1cc(C)c(OCC(=O)Nc2ccccn2)c([N+](=O)[O-])c1	-13%	i
CC(=O)c1ccc(OCCNS(=O)(=O)c2ccc(-n3cnnn3)c(C)c2)cc1	-22%	-8%
CN(C)CC[C@@H](c1ccc(Br)cc1)c1ccccn1	-4%	i
COc1cc2nc(N3CCCCC3)nc(NC3CCN(Cc4ccccc4)CC3)c2cc1OC	-28%	-7%
Other results
SMILES	Vaccinia Venus	VACV mCherry inh
Cc1ccc2nc(NC(=O)CSc3nc(=O)n(CCN(C)C)c4c3CCCC4)sc2c1	-6%	-9%
COCCCNC(=O)CSc1nc2cc3c(cc2c(=O)n1CCCCCC(=O)NCc1ccc2c(c1)OCO2)OCO3	-17%	-12%
Cc1ncc([N+](=O)[O-])n1CCOC(N)=O	-4%	i
CCCCc1ccc(NC(=O)Cn2nnc3sc4c(c3c2=O)CCC(C)C4)cc1 (stereo not given)	3%	-8%
COc1ccc(CCN2CC34C=CC(O3)C(C(=O)NCc3ccccc3)C4C2=O)cc1OC (stereo not given)	-1%	-16%
CN(C)S(=O)(=O)c1ccc(Cl)c(NC(=O)CN2C(=O)NC3(CCCC3)C2=O)c1	-1%	-21%
COc1cccc(-c2cc(C(F)(F)F)n3nc(C(=O)N4CCC5(CC4)OCCO5)cc3n2)c1	-12%	-5%
Cc1ccc(O)c(C(=O)/C=C/c2ccc3c(c2)OCCCO3)c1	-12%	-15%
CCCn1c(SCC(=O)NCCc2ccc(Cl)cc2Cl)n[nH]c1=O	-19%	i
CC[C@H]1c2[nH]c3ccccc3c2C[C@@H]2C(=O)N(c3ccc(F)cc3)C(=O)N21	-3%	4%
COc1cc(/C=N/Nc2ccc3ccccc3c2)ccc1OC(=O)c1ccco1	-4%	-12%
CCN(CC(=O)Nc1ccccc1C(F)(F)F)C(=O)CN1C(=O)NC2(CCCC2)C1=O	-7%	i
Cc1ccc(N2NC(C)(c3cccs3)NC2=S)cc1 (stereo not given)	-11%	-5%
O=C(CN1C(=O)CCc2cc(S(=O)(=O)N3CCOCC3)ccc21)Nc1cccc(C(F)(F)F)c1	-5%	-16%
NC(=NC1C2CC3CC(C2)CC1C3)Nc1ccc(I)cc1 (stereo not given)	?	-21%
CCCCCCCCN1C(=O)[C@H](CC(=O)NCc2ccc(OC)c(OC)c2)C[C@@]2(C(=O)OCC)CCCC=C12	-19%	-22%
CCOc1cccc2sc(=NC(=O)CCS(=O)(=O)c3ccc(F)cc3)n(C)c12	-21%	-14%
CCN(Cc1ccccc1)c1cc2c(c3c1ccn3C)C1CCC2O1 (stereo not given)	-6%	-9%
Cc1ccc(CNC(=O)c2ccc(CS(=O)Cc3cccc(Cl)c3)o2)cc1 (stereo not given)	-2%&-22%	-11%&-11%
Cc1ccc([N+](=O)[O-])cc1S(=O)(=O)Nc1cccc(S(=O)(=O)Nc2ccccc2C(=O)O)c1	-7%	-3%
CC(C)Oc1ccc(C(=O)NNC(=O)c2ccccc2C(=O)O)cc1	-3%	i
COc1cc(/C=N/N=C2/NC(=O)C(Cc3ccccc3)S2)ccc1O (stereo not given)	-22%	?
CC(Oc1ccc(Cl)cc1)C(=O)N(C)CC(=O)Nc1ccc(N2CCOCC2)cc1 (stereo not given)	-3%	-12%
CC1CN(C(=O)c2cc3c(=O)n4ccccc4nc3n2C)CC(C)O1 (stereo not given)	-12%	-8%
CCC(C)c1ccc(NC(=S)NCc2ccccn2)cc1 (stereo not given)	-2%	-6%
Cn1nc(C(C)(C)C)c(NC(=O)c2ccc(F)cc2)c1C(C)(C)C	-15%	i
O=c1[nH]n(-c2ccccc2Cl)c(=O)c2ccccc12	-10%	-2%
Cc1c(NC(=O)OC(C)C)sc(=S)n1C	3%	i
O=C(c1ccccc1)C(c1ccccc1)[n+]1csc2ccccc21 (stereo not given)	-10%	-18%
COc1ccc(C(=O)N2CCN(c3ccccc3)CC2)cc1S(=O)(=O)N1CCOCC1	0%	-5%
CC(C)N(C(=O)Cn1c(-c2ccccc2Cl)nc2ccccc21)c1ccccc1	-8%	-15%
COc1ccc(CNC(=O)Cn2nnc(-c3ccc(C(F)(F)F)cc3)n2)cc1	-8%	-12%
O=C(NNC(=O)c1c(O)c2ccccc2[nH]c1=O)c1ccccc1	-4%	-16%
CCSC1=N/C(=C\c2ccc(-c3ccccc3[N+](=O)[O-])o2)C(=O)S1	-7%	-11%
Cc1ccc(-c2nc3ccccc3[nH]c2=O)cc1	-15%	-14%
CCN(c1ccccc1)S(=O)(=O)c1cccc(C(=O)NCC(c2ccc(OC)cc2)N2CCCCC2)c1 (stereo not given)	-29%	-10%
Cc1noc(C)c1-c1ccc(C(=O)Nc2cccc(NS(C)(=O)=O)c2)c2occc12	-2%	i
O=C(OCc1nc(-c2ccccc2)oc1COC(=O)c1ccco1)c1ccco1	-11%	i
COc1ccccc1C(C)NCC(=O)NCc1ccc(C)cc1 (stereo not given)	-9%	-19%

Grouped by structure, the entries above with an NH in an aromatic ring
SMILES	Vaccinia Venus	VACV mCherry inh
CC(C)Cc1nnc(NC(=O)CSc2nc(O)c(Cc3ccccc3)c(=O)[nH]2)s1	-7%	-11%
O=C(Nc1ccc2nc(-c3ccc(Br)o3)[nH]c2c1)c1ccco1	-39%	·
CCc1n[nH]c(=S)n1/N=C/c1ccc(N(CC)CC)cc1	-9%	-18%
COCCn1c(=O)[nH]c2cc(C(=O)N3CCN(c4cc(C)ccc4C)CC3)ccc2c1=O	-21%	-28%
Nc1ccc2nc(-c3ccc(N)c(Cl)c3)[nH]c2c1	-20%	-19%[1.46 µM]
Cc1[nH]c2ccccc2c1C1(O)C(=O)Nc2ccc(Cl)cc21 (stereo not given)	15%	13%
CCCn1c(SCC(=O)NCCc2ccc(Cl)cc2Cl)n[nH]c1=O	-19%	i
CC[C@H]1c2[nH]c3ccccc3c2C[C@@H]2C(=O)N(c3ccc(F)cc3)C(=O)N21	-3%	4%
O=c1[nH]n(-c2ccccc2Cl)c(=O)c2ccccc12	-10%	-2%
O=C(NNC(=O)c1c(O)c2ccccc2[nH]c1=O)c1ccccc1	-4%	-16%
Cc1ccc(-c2nc3ccccc3[nH]c2=O)cc1	-15%	-14%
